# Yeast UUG start: modulators of start codon recognition fidelity in yeast. AID 602363. activity score, % at 18.7 µM. S. cerevisiae UUG-firefly luciferase reporter, luminescence/redox ratio. hit rate 0.13% among 350,000;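 active = replicate mean at a twofold rise or more, about +100% in these data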;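 note: firefly luciferase made from a UUG start codon reports start codon fidelity; reporter light over untreated wells divided by growth signal over untreated wells; some hits fall short of that in this replicate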
# Env fusion inh: blocks HIV Env-driven cell-cell fusion. inhibition, % at 12.3 µM. HeLa-JRFL Env/CEM21 cell fusion, luciferase. hit rate 1.1% among 360,000;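 active = mean replicate inhibition score of at least 50 and every replicate individually at or above 50; inconclusive = only one of the two criteria met; inactive = mean below 50 and not all replicates reaching 50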;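 note: 0% = plate neutral controls and 100% = maraviroc near 300 nM; one replicate is shown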
# eIF4H inh: inhibitors of RNA binding by human eIF4H; Q15056; eIF4H fluorescence polarization binding assay; inhibition, % at 35 µM; hit rate 0.94% among 290,000;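 active = 50% or more with normal probe brightness, or confirmed in later tests; inconclusive = above 50% with abnormal brightness, or retests that disagree; inactive = below 50% or failed in later tests; about a fifth of its hits are not listed in these tables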;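 note: calls also rest on retests at 20 µM and on dose response follow-up; 0% = protein and probe with vehicle and 100% = probe without protein; strong numbers were not always called active; many hits fall short of the cut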
# MT1-MMP act inh: inhibitors of human MT1-MMP activation; P50281; HT1080 RFP-PRO-GFP cells, GFP/RFP ratio fluorescence, overnight; percent of plate control window, DMSO zero; GFP/RFP ratio change, % at 20 µM; hit rate 0.061% among 360,000; AID 651647;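 active = GFP/RFP ratio change of at least 30% with cell ATP level not reduced by more than half and red fluorescence within 50% of control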; note: strong numbers were not always called active
#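 Assay system: HT1080 RFP-PRO-GFP cells | Dosing: 20 µM single dose, 1% DMSO | Incubation: Cells overnight before dosing, compound overnight, 37 °C, 5% CO2 | Evaluation: GFP/RFP fluorescence ratio | Control set: DMSO-only wells and HT1080 RFP-L50D-GFP cell wells as references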
# PABP FP inh: PABP-poly(A) binding inhibition | AID 2014 | PABP-poly(A) RNA binding, fluorescence polarization | P11940 | hit rate 1% among 290,000 | inhibition, % at 35 µM;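 active = 50% or more with normal probe brightness, or confirmed in later tests; inconclusive = above 50% with abnormal brightness, or retests that disagree; inactive = below 50% or failed in later tests; about a fifth of its hits are not listed in these tables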;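 note: calls also rest on retests at 20 µM and on dose response follow-up; controls were probe without protein and protein plus probe with vehicle; some compounds called inactive have numbers as strong as hits; many hits fall short of the cut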
# Target sequence (P11940 whole entry, looked up): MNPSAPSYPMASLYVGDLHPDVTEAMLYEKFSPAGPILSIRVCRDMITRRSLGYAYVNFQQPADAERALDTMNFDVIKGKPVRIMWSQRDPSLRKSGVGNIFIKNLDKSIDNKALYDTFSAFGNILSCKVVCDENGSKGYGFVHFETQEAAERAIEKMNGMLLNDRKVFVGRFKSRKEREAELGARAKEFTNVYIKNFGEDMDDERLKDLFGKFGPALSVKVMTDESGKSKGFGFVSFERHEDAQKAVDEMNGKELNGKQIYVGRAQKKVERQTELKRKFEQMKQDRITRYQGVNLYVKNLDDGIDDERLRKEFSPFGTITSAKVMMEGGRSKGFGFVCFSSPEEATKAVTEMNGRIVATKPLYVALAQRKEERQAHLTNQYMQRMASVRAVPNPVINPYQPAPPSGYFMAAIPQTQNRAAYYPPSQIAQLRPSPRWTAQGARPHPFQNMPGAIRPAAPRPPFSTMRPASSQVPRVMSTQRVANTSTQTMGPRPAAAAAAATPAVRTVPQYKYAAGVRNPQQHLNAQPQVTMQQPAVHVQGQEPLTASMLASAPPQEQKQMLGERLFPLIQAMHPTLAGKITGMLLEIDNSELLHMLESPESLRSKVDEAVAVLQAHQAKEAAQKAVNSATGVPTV
# CSC inhib: blocks cancer stem cells | inhibition, % at 7.5 µM | hit rate 1.1% among 300,000 | AID 2717 | cancer stem cell-like cells viability, luminescence;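 active = mean at 75% or more and at least half the replicates too; inconclusive = mean and replicates disagree; tested in HMLE shEcad cells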;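 note: 0% = median of negative and 100% = median of positive control wells; the first replicate is given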
# Rce1 inh: inhibitors of yeast Ras-converting enzyme; hit rate 0.27% among 290,000; calls only; Q03530; yeast membranes, quenched prenylated peptide cleavage fluorescence;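 active = fall in fluorescence gain of 50% or more versus controls, with final raw signal at or below 3038400; inconclusive = same 50% fall but final raw signal above 3038400; inactive = fall in fluorescence gain under 50%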;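 note: plate controls were neutral control wells for no effect and wells lacking membranes for full effect; tested at 10 µM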
# eIF4H inh retest: second read-out of eIF4H inh, no call of its own (marks repeat the call); inhibition, %; compound at 20 µM; confirmation average;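 mean of two retest wells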
# PABP FP inh retest: further read-out of PABP FP inh, marked with its call; inhibition, %; compound at 20 µM; confirmation repeats;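 mean of two retest wells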
# MT1-MMP act inh RFP: recorded beside MT1-MMP act inh, whose call it bears; RFP signal change, %; measured here: RFP expression control read;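 0 = vehicle wells; hits needed this value within 50% of zero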
# Active calls of the source: *; i = inactive; ? = inconclusive; / = no result given; [ ] = remark or other dose. Only part of the results is shown; rates above refer to the full screens.
SMILES,Yeast UUG start,Env fusion inh,eIF4H inh,MT1-MMP act inh,MT1-MMP act inh RFP,PABP FP inh,CSC inhib,Rce1 inh,others
CCOC(=O)C1=C(C)N(C)C(=O)NC1c1ccc2c(c1)OCO2 (stereo unspecified),-16,20,-5,-3,-1,-2,-12,i,
Cc1cccc(C(=O)Nc2nnc(S(=O)(=O)N(C)Cc3ccco3)s2)c1,-17,-12,/,0,-3,/,3,i,
Cc1cc(C)c2c(CN3CCOCC3)cc(=O)oc2c1C,/,9,4,-3,-3,8,-13,i,
C[C@@H](O)C1NC(=O)[C@H](CCCCN)NC(=O)c2cc([N+](=O)[O-])cc(I)c2OCC[C@@H](C(N)=O)NC1=O (stereo partly specified),-5,-23,89,-2,0,1,-7,i,eIF4H inh retest=-5;PABP FP inh retest=9
N#CC1=C(N)N(c2ccccc2)C(c2cccc([N+](=O)[O-])c2)C1(C#N)C#N (stereo unspecified),/,/,-8,-1,-5,4,9,i,
Cc1cc(C)cc(-c2nnc(SCC(=O)NCC3CCCO3)o2)c1 (stereo unspecified),5,-4,/,3,8,/,/,/,
CC1CCC2C(=O)N(c3cccc(C(=O)Nc4ccc(F)cc4)c3)C(=O)C2C1 (stereo unspecified),-12,16,-7,1,-2,3,-5,i,
COc1cc(C(=O)NC(=S)Nc2cccc3nc(C)ccc23)cc(OC)c1OC,-10,4,3,6,2,-10,4,i,
CC1(Cc2cccc(F)c2)C(=O)Nc2ccc(-c3cccnc3)cc21 (stereo unspecified),-8,51,/,-11,-10,/,/,/,
O=C(NCC(=O)N(c1ccc2c(c1)OCO2)C(C(=O)NC1CCCC1)c1cccs1)c1ccco1 (stereo unspecified),-17,-20,-6,-2,-8,-5,-5,i,
O=C(Nc1cccc2c1CCCC2)c1ccccc1F,-20,1,-8,1,-1,4,10,i,
Cc1ccccc1OCCCCn1cnc2ccccc21,-24,65*,-5,-3,-19,-10,4,i,
Cc1ccc(S(=O)(=O)Nc2ccc(Nc3ccccc3)cc2)cc1,-10,4,2,0,-3,0,-10,i,
COc1ccccc1C(CC(=O)Nc1ccc(Cl)cc1)c1ccc(OC(C)C)cc1 (stereo unspecified),/,-88,6,-12,-14,-8,-1,i,
O=C(Cc1ccccc1)N1CCc2[nH]nc(-c3ccccc3)c2C1,-7,-5,-4,1,3,-6,4,i,
COc1cccc(CNC(=O)CCNC(=O)N2CC(=O)Nc3ccccc32)c1,-10,0,/,0,8,/,/,/,
CCOC(=O)C1CCN(C(=O)c2cc(CN3C(=O)c4ccccc4C3=O)ccc2OCC)CC1,/,1,/,-2,-2,/,-18,i,
Cc1ccc(C(=O)Nc2ccccc2C(=O)NCc2cccnc2)cc1,-15,7,11,1,3,5,2,i,
CCc1ccc(-c2nnn(CCC#N)n2)cc1,-8,0,29,-3,1,-10,3,i,
O=C(CN1C(=O)NC2(CCOc3ccccc32)C1=O)Nc1cccc(Cl)c1 (stereo unspecified),/,-6,0,8,-1,-6,8,i,
COc1ccc(/C=C/C(=O)OCC(=O)NC(C)CCc2ccccc2)cc1OC (stereo unspecified),8,/,/,2,-1,/,1,/,
O=C(N/C(=C\c1cccs1)C(=O)N1CCOCC1)c1cccs1,/,8,-3,2,4,8,2,i,
COc1ccc(N=c2sc3ccccc3n2C)cc1,-20,-140,-13,-4,-1,-7,-2,/,
O=C(OCc1ccccc1)C1=NNC2C(=O)N(c3ccccc3)C(=O)C12 (stereo unspecified),-13,0,38,4,3,6,-6,i,
O=C(NCc1cccnc1)Nc1ccc(Cl)cc1,-16,50,-18,-1,2,44,-7,i,
Cc1ccc(NC(=O)CSCc2ccco2)cc1,/,-21,-8,0,-2,-3,-12,i,
CC(C)(C)NC(=O)c1cc(C(C)(C)C)c(O)c(C(C)(C)C)c1,/,/,-9,7,1,-6,-2,i,
COc1ccc(OC)c(NC(=O)c2ccc(S(=O)(=O)N3CCOCC3)cc2)c1,-11,-14,6,2,2,-3,-39,i,
COc1ccc(CCNC(=O)C2CCN(C(=O)c3ccccc3C)CC2)cc1,1,6,0,4,0,-1,-13,i,
COC(=O)C(C#N)C(c1cccnc1)c1c(C)[nH][nH]c1=O (stereo unspecified),10,/,8,19,-2,-1,-14,i,
c1ccc(N2CCN(c3nc4cc5c(cc4s3)OCO5)CC2)cc1,-2,-34,-6,2,-7,-2,-1,i,
CC(=O)NC1=NN(C(C)=O)C(c2ccccc2)S1 (stereo unspecified),/,16,-10,2,1,-1,-10,i,
O=C(/C=C/c1ccc(F)cc1)c1ccc(N2CCOCC2)cc1,1,12,-12,3,-3,2,26,i,
Nc1nnc(SCc2cccc(C(F)(F)F)c2)s1,/,-7,0,5,-3,1,-3,i,
N#Cc1c2n(c3c(N)ncnc13)CCCCC2,/,10,0,-2,0,-8,-14,i,
O=C(C1CCN(S(=O)(=O)c2cccnc2)CC1)N1CCN(c2ccccc2Cl)CC1,0,/,-9,-1,-2,4,-7,i,
COc1cc(CNC(C)C23CC4CC(CC(C4)C2)C3)ccc1OCC(=O)NC(C)(C)C (stereo unspecified),/,11,-12,1,0,11,21,i,
O=C(NCCOc1ccccc1Cl)c1cccc2c1C(=O)c1ccc(Cl)cc1S2(=O)=O,-2,4,/,4,2,/,20,/,
COc1ccc(C(=O)NCCS(=O)(=O)N2CCc3ccccc3C2)cc1,-4,-15,/,3,6,/,-5,i,
CCN(CC)c1ccc(N2C(=O)/C(=C/c3ccccn3)SC2=S)cc1,/,1,24,8,7,5,-5,i,
COc1ccc(-n2nc(C(=O)N(C)C)nc2-c2ccccc2)cc1,-1,-13,-4,-2,-2,-9,-5,i,
CCCNC(=S)Nc1ccc(CC(=O)OC)cc1,-4,13,1,-1,6,3,-2,i,
CC(OC(=O)CN1C(=O)c2ccccc2C1=O)C(=O)NC1CCCC1 (stereo unspecified),-11,-15,-7,3,6,4,/,i,
Cn1nc(C(=O)Nc2ccc(S(=O)(=O)N3CCCCC3)cc2)c2ccccc2c1=O,-2,8,3,1,2,-1,9,i,
Cn1c(=O)c2[nH]c(SCc3cccnc3)nc2n(C)c1=S,-19,31,/,0,-4,/,/,/,
O=[N+]([O-])c1cccc(C(=Nc2ccccc2Cl)NO)c1,3,-118,-9,1,-4,25,-5,i,
Cc1cccc(CCN(C(=O)c2snc(C(N)=O)c2N)C(C(=O)NCC2CCCO2)c2ccc(F)cc2)c1 (stereo unspecified),-6,1,2,1,-1,0,/,i,
CC1(C)CC(=O)C(N=Nc2cc(S(=O)(=O)N3CCOCC3)ccc2Cl)=C(O)C1,/,/,12,/,/,9,-13,i,
COc1ccc(Cl)cc1NS(=O)(=O)c1cccc(C(=O)NCCCN2CCOCC2)c1,-9,-31,/,-2,6,/,/,/,
CCOC(=O)Cn1nc(/C=C/c2ccc(C)cc2)ccc1=O,-7,/,-1,6,4,2,-19,i,
COC(=O)c1c(NC(=O)CN(c2ccc(C)c(C)c2)S(C)(=O)=O)sc2c1CCCC2,/,15,-7,1,-2,2,11,i,
CCOc1cc(C=O)ccc1OCCCN1C(=O)NC(C)(C)C1=O,-5,-52,0,0,5,4,/,i,
CCOC(=O)N1CCC(NC(=O)c2cnn3c2NC(c2ccco2)CC3C(F)(F)F)CC1 (stereo unspecified),3,/,?,-26,8,?,/,i,
COc1ccc(OC)c(NC(=S)N2CCCC2)c1,-15,-2,-14,-11,-3,-12,17,i,
COCCN(CC1CCCN(C2Cc3ccccc3C2)C1)C(=O)CCC(C)=O (stereo unspecified),-3,-14,1,-1,4,-5,0,i,
CN(C(=O)c1cccc(NC(=O)Cc2ccc(NC(=O)C3CCCN(C(=O)C4CCC4)C3)cc2)c1)C1CC1 (stereo unspecified),1,25,/,6,4,/,/,/,
CCOc1ccc(-n2c(C)nc3cc(C(=O)NCCN4CCOCC4)ccc32)cc1,0,-90,-6,2,3,-4,-15,i,
C/C(=N\NC(=S)NC(C)C)c1ccc2c(c1)OCCO2,/,-5,-8,3,3,25,-9,i,
CC1CCCN(CCCNC(=O)CN2C(=O)COc3ccccc32)C1 (stereo unspecified),0,-9,/,0,3,/,-7,i,
S=C(NCc1ccco1)Nc1ccc(Oc2ccc(Cl)cc2)cc1,-34,8,0,-5,-12,-8,42,i,

# Gathered by group, those above with a CF3 group (2)
SMILES,Yeast UUG start,Env fusion inh,eIF4H inh,MT1-MMP act inh,MT1-MMP act inh RFP,PABP FP inh,CSC inhib,Rce1 inh,others
Nc1nnc(SCc2cccc(C(F)(F)F)c2)s1,/,-7,0,5,-3,1,-3,i,
CCOC(=O)N1CCC(NC(=O)c2cnn3c2NC(c2ccco2)CC3C(F)(F)F)CC1 (stereo unspecified),3,/,?,-26,8,?,/,i,

# (continued)
SMILES,Yeast UUG start,Env fusion inh,eIF4H inh,MT1-MMP act inh,MT1-MMP act inh RFP,PABP FP inh,CSC inhib,Rce1 inh,others
Cc1nn(C)cc1C(=O)Nc1ccc2c(c1)OCCO2,-40,3,-2,3,5,15,/,i,
COC(=O)c1sc(NC(=O)CCCn2nc([N+](=O)[O-])cc2C)c(C(=O)OC)c1C,-8,/,25,10,-1,2,/,i,
COc1cc(C(=O)OCCCN2CCCN(CCCOC(=O)c3cc(OC)c(OC)c(OC)c3)CC2)cc(OC)c1OC,-9,-13,/,1,-2,/,-7,i,
COc1ccc(C2C(C(=O)N3CCN(C)CC3)c3ccccc3C(=O)N2C2CCCCC2)cc1 (stereo unspecified),-11,-6,-5,-7,2,5,11,i,
CCN(CC)c1ccc(/C=N/NC(=O)Nc2nonc2N)cc1,/,-15,-1,0,-1,12,-9,i,
COc1ccc(NS(=O)(=O)c2ccc(N/N=C/c3ccc(N4CCOCC4)cc3)c([N+](=O)[O-])c2)cc1,-13,-7,-2,6,3,-17,/,i,
Cc1ccc(C(=O)NCc2ccco2)cc1,-8,-7,7,0,5,-1,-3,i,
Cn1c(SCCOc2ccccc2Cl)nnc1-c1cccs1,0,-54,-8,2,3,-11,-6,i,
CCOC(=O)N1CCN(CCC(=O)Nc2ccccc2OC)CC1,-2,-27,2,1,-9,-11,-18,i,
Cc1ccc(C(=O)N(Cc2nnc(-c3ccc(Cl)cc3)o2)C2CC2)o1,-3,/,/,0,-2,/,-11,/,
O=C(Nc1cc(Cl)ccc1N1CCOCC1)c1cccnc1Cl,5,11,-6,-4,4,-4,0,i,
CCCNC(=O)N[C@H]1C=C[C@H](CC(=O)NC2CCCCC2)O[C@@H]1CO,-1,-4[16.7 µM],/,3,6,/,/,/,
O=S(=O)(Cc1ccccc1)N1CCN(Cc2ccccc2)CC1,-17,-3,-6,1,-4,14,4,i,
O=C(COc1ccccc1Cl)NCCc1ccc2c(c1)OCCO2,/,-16,-11,-2,-2,-1,-10,i,
CCCCn1c(=N)n(CC(=O)c2ccc([N+](=O)[O-])cc2)c2ccccc21,/,-2,0,/,/,-18,-9,i,
COc1ccc(-c2nnc(SCCC(=O)O)n2-c2ccccc2)cc1OC,/,/,6,-1,5,-2,/,i,
O=C(Nc1cccnc1)C1CC(=O)N(c2ccc(F)cc2)C1 (stereo unspecified),/,-6,7,3,6,10,-14,i,
CC(=O)Nc1ccc(-c2ccnc3c2CC(C)(C(=O)Nc2cccc(Oc4ccccc4)c2)O3)cc1 (stereo unspecified),-5,-19,/,-3,-13,/,/,/,
